Assay outcomes: PubChem BioAssay, Broad Institute
HepG2: HepG2 cell cytotoxicity, dose response, cytotoxicity control, ATP luminescence, cherry-pick, activator set 2 (AID 1053143); HepG2 viability, CellTiter-Glo ATP luminescence, 72 h; 3,400 compounds, 3.7% hits; AC50 in µM for hits, for the others activity change, negative = cytotoxicity, % at the top dose, mostly 26 µM;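 active = fitted AC50 at most twice the highest valid dose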;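 note: 0 = neutral control and -100 = positive control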
An asterisk follows results filed as active; [ ] = another dose, or the depositor's remark.

nr	canonical_smiles	HepG2
1	CCOC(=O)C1=C(C)NC(=O)C(C(N)=O)C1c1ccccc1 (stereo not given)	-3.3%
2	O=C(COC(=O)c1cccc(NC(=O)c2ccco2)c1)c1ccc(Br)cc1	-11.4%
3	CCCC(=O)Nc1ccc(C(=O)COC(=O)C2CC2)cc1	-6.3%
4	CC(=O)c1sc(Nc2nc3ccc(F)cc3s2)nc1C	-7.4%
5	COc1ccc(NC(=O)CSc2nc(C)cs2)c([N+](=O)[O-])c1	-0.6%
6	CCCCSc1nc(C(=O)O)cc(=O)[nH]1	-1.1%
7	Cc1ccc2nc(Cc3ccc(N)cc3)[nH]c2c1	-5.5%
8	COc1ccc(-n2nnc3c(SCC(=O)N4CCCc5ccccc54)ncnc32)cc1	-12.8%[12 µM]
9	Cc1cccc(/C(N)=N/OC(=O)c2cccs2)c1	-17.7%
10	CC(C)(C)c1ccc(OCc2ccc(C(=O)NCc3cccnc3)o2)cc1	1.0%
11	COc1ccc(/C(N)=N/OC(=O)c2cccs2)cc1	-9.9%
12	COc1ccc(-c2[nH]ncc2CNC(C)c2ccccc2Cl)cc1F (stereo not given)	-10.5%
13	COc1cccc(C(=O)Nc2ccc(N(C)C)cc2)c1OC	-13.6%
14	COc1ccc2oc(=O)c(C(=O)N3CCN(c4ccccc4C)CC3)cc2c1	4.7%
15	Cc1ccc(NC(=O)CSc2nccn2Cc2ccco2)c(C)c1	-18.3%
16	CCn1cnc2cc(NCc3ccc(Br)cc3)ccc21	-7.4%
17	COC(=O)CCN(C(=O)c1ccc(Cl)c([N+](=O)[O-])c1)c1ccccn1	-16.3%
18	Cc1ccc(C(=O)Nc2ccc3c(c2)nc2n3CCSC2)cc1	-17.7%
19	N#Cc1cc2cc3c(cc2nc1N1CCCCC1)OCCO3	60.4%
20	Cc1ccc(SCCSc2nc(C)cc(=O)[nH]2)cc1	-6.4%
21	CN(Cc1nc(-c2ccccc2)no1)C1CCOCC1	-13.9%
22	Cc1nn(-c2ccccc2)c(Cl)c1/C=N/NC(=O)OC(C)(C)C	12.7%
23	Cc1cc(O)c(NC(=O)c2cccc([N+](=O)[O-])c2)cc1C	1.6%
24	COc1ccc(Cn2cc(CN3CCc4onc(-c5ccc(Br)cc5)c4C3=O)nn2)cc1	-6.5%
25	COc1ccccc1-c1cc(C(=O)N2CCCC2)no1	-8.8%
26	O=C(Nc1ccc(Cl)cc1)Nc1nnc(Cc2ccc([N+](=O)[O-])cc2)s1	-7.5%
27	COc1ccc(CCNC(=O)C2CCN(S(=O)(=O)c3ccc(C)cc3)CC2)cc1OC	-9.7%
28	CCc1nc(C)cn1S(=O)(=O)c1ccc(Br)cc1	-5.5%
29	CCc1nnc(NS(=O)(=O)c2ccc(N)cc2)s1	8.8%
30	CCCc1cc(C(=O)Nc2cccnc2)no1	42.2%
31	O=C1Nc2ccccc2/C1=C/c1cnc(-c2ccccc2)[nH]1	-6.1%
32	O=C(/C=C/c1ccco1)Nc1scc(-c2ccccc2)c1C(=O)O	-6.1%
33	O=C(c1cnsn1)N1CCC(CO)(Cc2cccc(F)c2)CC1	-12.3%
34	Cc1cccc(-c2nnc(-c3cccc4ccccc34)o2)c1	-12.9%[6 µM]
35	CC1CCC2(CC1)NC(=O)N(Cc1cccc(C(F)(F)F)c1)C2=O (stereo not given)	10.0%[12 µM]
36	Cc1ccc(C(=O)Nc2ccc3ccccc3n2)cc1	-18.6%
37	Cc1cc(NC(=O)c2ccccc2)ncc1NC(=O)c1ccco1	26µM*
38	Cn1nnc2cc(C(=O)Nc3ccc4ccccc4c3)ccc21	2.0%
39	Cc1ccc(OC(=O)c2c(C)nn(-c3ccccc3)c2C)cc1	5.1%
40	Cc1ccn(-c2cccc(-n3ccc(C)n3)n2)n1	-7.8%
41	Cc1ccn2c(C(=O)c3ccc(Cl)cc3)cnc2c1	-25.1%
42	Cc1nn2c(=O)cc(COC(=O)c3c(F)cccc3Cl)nc2s1	11.9%
43	O=C(O)CC1=C(Nc2ccccc2)C(=O)N(c2ccccc2)C1c1ccc(Br)cc1 (stereo not given)	21.9%
44	Fc1ccc(-c2cn3cc(C(F)(F)F)cc(Cl)c3n2)cc1	1.4%
45	O=C(CCNc1ccccc1)c1ccc2c(c1)OCO2	-14.1%
46	COc1ccccc1-c1nnc(NC(=O)CSc2nncn2C)s1	-1.7%
47	Cc1ccc(OC(=O)c2cccc([N+](=O)[O-])c2)c(-n2nc3ccccc3n2)c1	11.5%
48	O=C(CC(=O)c1ccccn1)c1ccccc1	1.4%
49	CC(=O)Nc1ccc(-c2csc(Nc3ncccn3)n2)cc1	3.3%
50	COc1ccc(NC(=O)CC2C(=O)N(C)C(=S)N2Cc2ccc3c(c2)OCO3)cc1 (stereo not given)	-9.5%
51	Cc1cccnc1NC(=O)c1cc2ccccc2oc1=O	10.4%
52	COC(=O)c1ccc(COc2ccc(C)cc2[N+](=O)[O-])o1	2.7%
53	Cc1cc(C)n(-c2cc(C(C)(C)C)nc3c(-c4ccccc4)cnn23)n1	-9.8%
54	CCOc1ccc2oc(C(=O)Nc3nccs3)c(C)c2c1	-0.4%
55	CC1CCc2sc(C(=O)NC3CCCCC3)cc2C1 (stereo not given)	-10.7%
56	O=C(/C=C/c1ccco1)Nc1ccccc1C(=O)O	-19.8%
57	O=C(NCC(=O)N(Cc1cccs1)C(C(=O)NC1CCCCC1)c1ccco1)c1cccs1 (stereo not given)	-15.3%
58	CCC(=O)Nc1ccc(OCc2nc3ccccc3s2)cc1	-8.7%
59	COc1cc(OC)cc(C(=O)NCC(=O)Nc2ccc(C)c(Cl)c2)c1	0.0%
60	Cc1ccccc1NC(=O)c1nnn(-c2ccc3c(c2)OCCO3)c1N	-7.3%

Arranged by molar mass (largest number first): part of the list above.
nr	canonical_smiles	HepG2
57	O=C(NCC(=O)N(Cc1cccs1)C(C(=O)NC1CCCCC1)c1ccco1)c1cccs1 (stereo not given)	-15.3%
59	COc1cc(OC)cc(C(=O)NCC(=O)Nc2ccc(C)c(Cl)c2)c1	0.0%
60	Cc1ccccc1NC(=O)c1nnn(-c2ccc3c(c2)OCCO3)c1N	-7.3%
58	CCC(=O)Nc1ccc(OCc2nc3ccccc3s2)cc1	-8.7%
49	CC(=O)Nc1ccc(-c2csc(Nc3ncccn3)n2)cc1	3.3%
54	CCOc1ccc2oc(C(=O)Nc3nccs3)c(C)c2c1	-0.4%
51	Cc1cccnc1NC(=O)c1cc2ccccc2oc1=O	10.4%

New compounds follow
nr	canonical_smiles	HepG2
61	OCc1cn(-c2ccccc2)nc1-c1cc2ccccc2o1	11.3%
62	CC(=O)Nc1nc(-c2ccc(-c3ccccc3)cc2)cs1	-17.8%
63	CC(C)Cc1ccc(/C=C/C(=O)NC2CC2)cc1	-13.1%
64	CCCC(=O)Nc1nc2ccc(OCC)cc2s1	-6.9%
65	O=C(CN1C(=O)NC2(CCCCC2)C1=O)Nc1ccc2c(c1)OCCCO2	-15.3%
66	Nc1nc2c(-c3ccc(Br)cc3)nnn2c2ccccc12	-1.1%
67	Cc1cc2c(C)nc(-c3ccccc3)nc2o1	-12.6%
68	CCOC(=O)c1cnc(SCC(C)C)nc1N	-16.4%
69	O=C(CSCc1ccccc1Cl)Nc1ccc2c(c1)OCCO2	8.0%
70	Cc1ccc(O)c(-c2cc(C(=O)Nc3cccnc3)[nH]n2)c1	-5.3%
71	Cc1nn(-c2ccc([N+](=O)[O-])cc2)c(N)c1-c1ccccc1	-16.6%
72	O=C(NN/C(=N/S(=O)(=O)c1ccc(Cl)cc1)c1ccccc1)c1cccc(Cl)c1	-2.3%

2 compounds picked at random from the list so far, as already listed:
nr	canonical_smiles	HepG2
66	Nc1nc2c(-c3ccc(Br)cc3)nnn2c2ccccc12	-1.1%
65	O=C(CN1C(=O)NC2(CCCCC2)C1=O)Nc1ccc2c(c1)OCCCO2	-15.3%

Returning to the listing; the three compounds before the break are reprinted first.
(70) Cc1ccc(O)c(-c2cc(C(=O)Nc3cccnc3)[nH]n2)c1
  HepG2 = -5.3%
(71) Cc1nn(-c2ccc([N+](=O)[O-])cc2)c(N)c1-c1ccccc1
  HepG2 = -16.6%
(72) O=C(NN/C(=N/S(=O)(=O)c1ccc(Cl)cc1)c1ccccc1)c1cccc(Cl)c1
  HepG2 = -2.3%
(73) COC(=O)c1cc2c(s1)-c1ccc(OC)cc1CC2
  HepG2 = -0.2%
(74) O=C(/C=C/Nc1ccccc1F)c1ccc(Br)cc1
  HepG2 = -10.1%
(75) Cc1ccccc1Nc1nc(N)nc(COC(=O)c2cccn2C)n1
  HepG2 = 6.9%
(76) COc1cc(SC)ccc1C(=O)Nc1ccccc1
  HepG2 = 17.8%[12 µM]
(77) Fc1ccc(Oc2ccnc(Cl)n2)c(Cl)c1
  HepG2 = -8.1%[12 µM]
(78) Cc1ccc2cc(/C=C/C(=O)c3ccco3)c(Cl)nc2c1
  HepG2 = -14.8%
(79) COc1ccc2oc(C(=O)Nc3nccs3)c(C)c2c1
  HepG2 = -20.4%
(80) CCc1ccc(C(=O)CCC(=O)Nc2ccc(OC)c(S(=O)(=O)N3CCCCC3)c2)cc1
  HepG2 = -13.9%
(81) COc1ccc(-c2cc(-c3ccc(C)cc3)n[nH]2)c(O)c1
  HepG2 = -15.3%
(82) O=C(c1ccco1)N1CCN(S(=O)(=O)Cc2ccc(Cl)cc2)CC1
  HepG2 = -8.0%

(83) C=CCOc1ccc2c(OC)c3ccoc3nc2c1OC
  HepG2 = -3.4%
(84) O=C(Nc1cccc2nsnc12)c1cccs1
  HepG2 = -12.5%
(85) CCOC(=O)c1csc(NC(=O)c2cccs2)n1
  HepG2 = -11.3%
(86) CCCc1cc(C(=O)NC2CCCCC2)no1
  HepG2 = -5.6%
(87) CC(C)(C)N=Cc1cc(-c2ccccc2)sc1O
  HepG2 = 1.6%
(88) O=C(Nc1ccccc1)Nc1cccc2nsnc12
  HepG2 = -23.0%
(89) c1ccc(CSc2nnc(NC3CCCCC3)s2)cc1
  HepG2 = -1.2%
(90) COc1ccc(N=Cc2sc(O)c3ccccc23)cc1
  HepG2 = -21.7%
(91) O=C1c2ccccc2NC(c2ccc(-c3cccc(F)c3)o2)N1O (stereo not given)
  HepG2 = -16.2%
(92) CC(=O)Oc1ccc(/C=C2/Oc3ccccc3C2=O)cc1
  HepG2 = -5.5%

(93) Nc1ccc2nc(-c3ccccc3)cnc2c1
  HepG2 = -14.5%
(94) CCOC(=O)/C=C1\SCC(=O)N1CC(=O)Nc1ccc2c(c1)CCC2
  HepG2 = 13.7%
(95) O=C(Nc1ccc2nc(-c3ccccc3)[nH]c2c1)c1ccco1
  HepG2 = -29.3%
(96) COc1cc(CNc2ccc(N3CCN(C(C)=O)CC3)cc2)ccc1OCc1ccccc1
  HepG2 = -14.3%
(97) Cc1cnc(NC(=O)COc2ccccc2)s1
  HepG2 = 1.1%
(98) Cc1cc2nc(C3CCCN(C(=O)NCc4ccccc4)C3)[nH]c2cc1C (stereo not given)
  HepG2 = 16.2%
(99) C=C(C)CNC(=O)CCc1nnc(Cc2cccc(C(F)(F)F)c2)o1
  HepG2 = 7.9%[12 µM]
(100) O=S(=O)(Nc1ccc2nc(-c3ccco3)[nH]c2c1)c1ccccc1
  HepG2 = -18.9%
(101) Nc1ccccc1SC1CC(=O)N(c2ccc3c(c2)OCCO3)C1=O (stereo not given)
  HepG2 = -1.4%
(102) CC1CCN(C(=O)CSc2nc3ccccc3s2)CC1
  HepG2 = 9.4%

(103) O=C(Nc1ccccc1F)Nc1ccc([N+](=O)[O-])cc1Cl
  HepG2 = -26.5%
(104) Cc1ccc(O)c(N=Nc2ccccc2)n1
  HepG2 = -9.2%
(105) COc1ccc(N(CC(=O)NC2CC3CCC2C3)S(=O)(=O)c2ccc(C)cc2)cc1Cl (stereo not given)
  HepG2 = -5.8%
(106) O=C(N/N=C/c1cccs1)c1c[nH]c2ccccc12
  HepG2 = -11.4%[12 µM]
(107) COc1cccc(NC(C)C(=O)N2CC(C)OC(C)C2)c1 (stereo not given)
  HepG2 = -9.3%
(108) CC1CCc2nc3sc4c(c3c(N)c2C1)CCCC4 (stereo not given)
  HepG2 = -18.5%
(109) Cc1ccc(S(=O)(=O)N(C)C)cc1NC(=O)CCc1ccccc1
  HepG2 = -7.1%
(110) CC(C)c1ccc(OCc2ccc(C(=O)N(C)C)o2)cc1
  HepG2 = 7.8%
(111) CCc1cc2c(=O)[nH]c(-c3ccccn3)nc2s1
  HepG2 = 14.2µM*
(112) Cc1ccc2cc(C#N)c(SCC(=O)N3CCCC3)nc2c1
  HepG2 = -1.4%

A few values from the results shown.
In HepG2, cpd 103 shows -26.5%
In HepG2, cpd 109 shows -7.1%

Continuation.
(113) COc1cccc(OCc2cc(C(=O)N3CCN(C(=O)c4ccco4)CC3)no2)c1
  HepG2 = -6.0%
(114) COCc1cc(=O)[nH]c2cc(NC(=O)C3CC3)c(C)cc12
  HepG2 = 19.7%
(115) Cc1ccc2nc(N3CCN(C(=O)c4ccco4)CC3)sc2c1
  HepG2 = -7.0%
(116) O=C(NCCc1ccccc1)c1n[nH]c2ccccc12
  HepG2 = -8.4%
(117) Cc1ccc(Nc2cc(C)nc(-c3ccccc3O)n2)cc1
  HepG2 = -4.2%
(118) Cn1c(=O)cc(OCCCC(=O)Nc2ccc3c(c2)OCCO3)c2ccccc21
  HepG2 = -7.4%

This is a subset; count on the stated rates, not on these rows.
